# Sa RN4220 lethal: S. aureus RN4220 growth inhibition | OD600, 16 h | inhibition, % (concentration not given with the values) | actives 0.33% (n = 330,000) | AID 1259311;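 active = z-score of -3 or lower and OD600 up to 0.18 on both plates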;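 note: plate controls were untreated cells for no effect and reference antibiotic for full effect; stock transfer was 100 nL into about 80 µL; one replicate is shown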
# Sa ugtP lethal: compounds lethal to S. aureus RN4220 ugtP deletion mutant | actives 0.54% (n = 330,000) | OD600 growth, 16 h; some inactives read as strong as hits | growth inhibition, % (concentration not given with the values) | AID 1259309;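 active = z-score under -3 and OD600 up to 0.15 on both plates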;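 note: plate controls were untreated wells for no effect and antibiotic for full effect; wells of about 80 µL received 100 nL stock; the first replicate is given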
# BJeLR lethal: kills HRASV12-expressing BJeLR cells; inhibition, % (test concentration not listed); actives 0.17% (n = 300,000); BJeLR (HRASV12) viability, CellTiter-Glo ATP luminescence, 48 h; reference of the scale not given here;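 active = replicate mean above 50%; inconclusive = above 50% but judged a plate artefact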;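 note: 50 nL library stock added to about 25 µL; numbers are from one replicate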
# Bead autofluor: counter-screen for toxin protease inhibitors: compound fluorescence | compound autofluorescence counterscreen, microsphere flow cytometry; stronger effect = higher value | fluorescence intensity (no concentration beside the values) | actives 3.1% (n = 360,000) | AID 624483;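 active = at least 3 SD above the mean of all compounds, about 16000 in these data; inconclusive = too few beads counted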;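 note: 100 nL of 1 mM stock went into each well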
# PrP 5UTR inh: suppresses PrP 5' UTR mRNA reporter expression. AID 488862. inhibition, % (no concentration beside the values). actives 0.35% (n = 340,000). cell-based PrP 5' UTR mRNA reporter, plate reader;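 active = every replicate at 50% or more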;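 note: 0 = median of the neutral control wells; tested in H4 reporter cells; numbers are from one replicate; inactives centre near -14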
# Mtb hypoxia inh: Mtb hypoxia fluorescent reporter inhibition; AID 1159583; actives 0.1% (n = 300,000); M. tuberculosis hypoxia-regulated fluorescent reporter, fluorescence; fluorescence inhibition, % (no concentration beside the values);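 active = 35 to 45% if threefold the growth effect, above 45% if 1.5-fold the growth effect; inactive = the rest, general growth blockers included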;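 note: wells of about 50 µL received 100 nL stock; 0% = vehicle wells and 100% = reference inhibitor wells; whole bacteria with a GFP reporter of the hypoxia response; strong numbers were not always called active; many hits fall short of the cut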
# Mtb hypoxia inh growth: further read-out of Mtb hypoxia inh, marked with its call; growth inhibition, %; measured here: M. tuberculosis growth (absorbance);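 0% = vehicle and 100% = reference antibiotic; read after six days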
# * = called active by the depositor; ? = inconclusive; nt = not tested or not shown. The order is random; 3.9% or so of the library scored in one or more.
# Start of the data: the first 3 entries, to show the layout:
# Second line of a record – Sa RN4220 lethal	Sa ugtP lethal	BJeLR lethal	Bead autofluor	PrP 5UTR inh	Mtb hypoxia inh	Mtb hypoxia inh growth
> COc1ccc(C=NNC(=O)c2cccnc2)cc1
 : -1.4	4	nt	nt	nt	2	6
> CC(C)Cn1c(N)c(C(=O)CSc2nc3ncc(Cl)cc3[nH]2)c(=O)n(C)c1=O
 : 4.8	1	9	4477	-14	3	0
> CN(CC(=O)Nc1c(Cl)cccc1Cl)C(=O)c1cccc(-n2cccc2)c1
 : 4.6	-1	-4	?	-12	10	3

# The listing, previewed entries included:
# Second line of a record – Sa RN4220 lethal	Sa ugtP lethal	BJeLR lethal	Bead autofluor	PrP 5UTR inh	Mtb hypoxia inh	Mtb hypoxia inh growth
> COc1ccc(C=NNC(=O)c2cccnc2)cc1
 : -1.4	4	nt	nt	nt	2	6
> CC(C)Cn1c(N)c(C(=O)CSc2nc3ncc(Cl)cc3[nH]2)c(=O)n(C)c1=O
 : 4.8	1	9	4477	-14	3	0
> CN(CC(=O)Nc1c(Cl)cccc1Cl)C(=O)c1cccc(-n2cccc2)c1
 : 4.6	-1	-4	?	-12	10	3
> O=C1CC(=O)Nc2cc(S(=O)(=O)N3CCOc4ccc(Cl)cc43)ccc2N1
 : 2.9	-11	-4	5994	-12	nt	nt
> O=C(Cn1c(=O)n(Cc2ccco2)c(=O)c2c3c(sc21)CCCCC3)Nc1ccccc1
 : -4.8	-5	14	12200	nt	8	6
> O=C(NCc1ccc(Cl)cc1)c1cccnc1
 : 1.1	6	6	4645	-20	nt	nt
> COc1cc(NC(=O)c2ccc(C)cc2)ccc1NC(=O)c1cc2ccccc2o1
 : 0.2	-7	-4	6069	-27	14	5
> Cc1cnc(N)c2c(=O)oc3ccccc3c12
 : 6.4	-8	-3	5928	-24	-8	-1
> COc1ccc(CC(NC(C)=O)C(=O)NC2CCN(C(=O)c3cnccn3)CC2)cc1 (stereo not given)
 : 5.2	8	2	3819	-8	11	13
> N#CC(c1cccc(Cl)c1)c1ccc2c(C(F)(F)F)cc(C(F)(F)F)nc2n1 (stereo not given)
 : 97*	97*	76*	2445	0	nt	nt
> O=C(NCCCc1ccccc1)c1cnc2n(c1=O)CCS2
 : 2.9	9	4	7957	-13	6	3
> CC(C)OC(=O)CCCCCN1C(=O)CSC1=S
 : 3.6	6	-1	3691	-15	nt	nt
> Cc1cc(Br)ccc1NC(=O)CN(C)C(=O)c1cc(S(=O)(=O)N(C)C)ccc1N1CCCC1
 : -2.8	-4	8	5155	-17	-10	-7
> CN(C)C(=O)N1CCCC(C(=O)NCc2cccs2)C1 (stereo not given)
 : 6.0	7	2	9237	-18	14	9
> COc1ccc(-c2ccc(C(=O)C3CC3)cc2)cc1
 : 7.9	8	-6	3059	-35	-5	-10
> CS/C(=C\[N+](=O)[O-])Nc1ccc(Cl)cc1
 : nt	nt	-1	3120	-8	nt	nt
> C=CCN=C1CC(C)(C)C(C(=O)OC)C(O)=C1C(=O)CCC (stereo not given)
 : 1.4	-2	1	3388	-22	5	9
> C#CCOCCOCCOCCNc1nc(N2CCN(C(=O)C(C(C)CC)n3cc(C(N)Cc4ccc(O)cc4)nn3)CC2)nc(N2CCN(C(=O)C(C(C)CC)n3cc(C(N)CC(C)C)nn3)CC2)n1 (stereo not given)
 : 0.2	0	nt	nt	nt	nt	nt
> CCn1c(CNC(=O)c2ccc(OC)c(OC)c2)nnc1SCC(=O)Nc1ccc(OC)cc1
 : 3.3	15	18	8590	-23	10	12
> Cc1cc(=O)[nH]c(NN=Cc2c[nH]c3ccccc23)n1
 : 2.7	7	nt	nt	nt	8	-5
> CCOC(=O)C(C)Sc1ncc(-c2ccc(Cl)cc2)cn1 (stereo not given)
 : 3.5	-6	-7	10866	-24	-4	8
> CN(C)CCCCOc1ccc(F)cc1
 : 6.3	-4	1	5194	-25	12	2
> COc1ccc(-c2csc3nc(C)nc(N4CCCCC4)c23)cc1OC
 : -5.8	-2	-4	4363	-2	-6	4
> Cc1ccc2nc(Nc3nc(C)cc(-c4ccccc4)n3)[nH]c(=O)c2c1
 : 17	-4	1	4394	-11	18	0
> CC(OC(=O)c1ccc(NC(=O)CC#N)cc1)C(=O)Nc1nc(-c2ccccc2)cs1 (stereo not given)
 : -15	-13	-10	4965	-37	4	9
> C/C(=N\NS(=O)(=O)c1ccccc1)c1cc(Cl)cc(Cl)c1O
 : nt	nt	1	4630	-12	nt	nt
> COc1cccc(NC(=O)C2C3CCC4C(CCC32)C4(Cl)Cl)c1 (stereo not given)
 : 0.5	-9	7	10050	-18	-8	-3
> COc1ccc(N2CCN(C(=O)CSc3nnc(COc4cccc5cccnc45)o3)CC2)cc1
 : 4.3	-4	0	10580	-31	14	0
> Cc1cc(=O)[nH]c2nnnn12
 : 1.6	6	4	6229	-3	-3	0
> O=C(Nc1ccccc1)c1ccc(Nc2c([N+](=O)[O-])cc([N+](=O)[O-])c3ccccc23)cc1
 : nt	nt	5	2045	-10	nt	nt
> CN(CC(=O)NC1CC(C)(C)NC(C)(C)C1)S(=O)(=O)c1cc(Cl)ccc1Cl
 : 2.4	0	-1	2303	-28	6	-5
> Cc1csc(NC(=O)c2ccc3ccccc3n2)n1
 : 11	8	3	3043	-72	14	3
> CC1CN(S(=O)(=O)c2cc(C(=O)NCCC3=CCCCC3)ccc2Cl)CC(C)O1 (stereo not given)
 : -4.3	-24	14	4728	-44	-16	-3
> CC(C)(C)c1cc(=O)n2[nH]c(N)nc2n1
 : 2.5	2	11	2177	-52	7	-4
> CCc1ccc(Nc2ccc3nonc3c2[N+](=O)[O-])cc1
 : -1.3	-5	1	nt	-12	-12	4
> CCCCSc1nc(C)nc2c1c(=O)n(C)c(=O)n2C
 : 8.5	8	-3	5851	-15	7	10
> C/C(=C\C(=O)c1ccc(Br)cc1)NCc1ccc2c(c1)OCO2
 : -23	33	7	2839	-10	0	9
> O=C(CC(=O)NN=Cc1ccccc1[N+](=O)[O-])NCCc1ccccc1
 : 5.1	-1	nt	nt	nt	-8	0
> COC(CNC(=O)CN1CCN(Cc2ccccc2F)C1=O)OC
 : 3.2	6	0	2863	-19	18	5
> O=C(COc1ccc(S(=O)(=O)N2CCOCC2)cc1)NC1CCCC1
 : 4.9	13	-9	10310	-11	4	-2
> O=C(NCCc1ccccn1)C1CCCN1S(=O)(=O)c1ccc(Cl)cc1 (stereo not given)
 : 4.4	10	1	4164	-13	2	-1
> O=C(CSC1=NC2(CCCCCC2)N=C1c1ccccc1)Nc1ccc2c(c1)OCCO2
 : -6.0	10	-6	6456	-12	nt	nt
> Cc1ccc2nc(-c3ccccc3)cc(C(=O)Nc3cccnc3)c2c1
 : 3.1	2	nt	3964	-18	9	3
> Cc1cc(C)n(Cc2ccccc2)c(=O)c1S(=O)(=O)c1ccccc1
 : -2.5	-3	5	4650	-14	nt	nt
> Nc1ccccc1C=NN=Cc1ccccc1N
 : 1.8	22	nt	nt	nt	17	10
> COc1ccc(NS(=O)(=O)c2ccc3oc(SCc4ccc(F)cc4)nc3c2)cc1
 : -11	16	-9	1935	-1	8	-1
> CCOc1ccc(Cl)cc1CN1CCOCC1
 : 1.1	3	-6	2097	-5	nt	nt
> O=C(c1ccc(NC(=S)NCc2ccc(Cl)cc2)cc1)N1CCCCC1
 : 0.9	-2	-7	4086	-19	1	-13
> CN(C)C(=O)C(OC(=O)c1ccc2c(c1)CCCC2)c1ccccc1 (stereo not given)
 : -1.6	15	5	3839	-24	15	-3
> O=C(Nc1nc2ccccc2n1Cc1ccccc1)c1ccco1
 : 5.9	6	4	3960	2	nt	nt
> O=C(NCCCN1CCOCC1)c1ccc(N2CCCC2)c([N+](=O)[O-])c1
 : 4.6	8	-5	3424	3	7	-5
> OCC1OC(Oc2c(Br)cc(Br)cc2Br)C(O)C(O)C1O (stereo not given)
 : 5.0	4	nt	3731	-23	18	11
> COc1ccc(NC(=S)N(CCN(C)C)Cc2cccs2)cc1
 : 4.6	11	-3	3094	2	7	-5
> CCc1ccc(OCc2ccc(C(=O)OC)o2)cc1
 : 1.9	4	0	3160	-47	-6	-2
> CC(C)CC(CO)N1CCN(C(=O)c2cccc(C(F)(F)F)c2)CCC1=O (stereo not given)
 : 11	-2	-10	3767	-3	1	-8
> COc1ccc(C(=O)n2cc(C(=O)c3cc(C)ccc3O)cn2)cc1
 : 2.8	7	3	2135	-9	-2	13
> CCOCCCNC(=O)c1ccc2c(c1)ncn2-c1ccc(C)cc1C
 : -0.4	13	2	3241	-26	1	-5
> Cc1ccc(/C=C/C(=O)OCC(=O)N2CC(=O)Nc3ccccc32)o1
 : 0.7	4	-7	3869	1	4	-6
> CCOC(=O)c1c(NC(=O)CC2SC(=NC)N(C)C2=O)sc(C)c1C (stereo not given)
 : 5.2	11	-5	?	-17	7	4
> O=C(O)c1c2cc(Br)ccc2nc2[nH]c(=O)[nH]c(=O)c12
 : -3.6	-7	nt	3712	-6	15	11

# (list continues)
# Second line of a record – Sa RN4220 lethal	Sa ugtP lethal	BJeLR lethal	Bead autofluor	PrP 5UTR inh	Mtb hypoxia inh	Mtb hypoxia inh growth
> O=C(O)C1CC=CCC1C(=O)NC1CCCCC1 (stereo not given)
 : 5.6	9	-3	2248	-71	7	3
> COc1ccc(CN2CCCC(CNC(=O)c3ccc(F)cc3)C2)c(F)c1 (stereo not given)
 : -2.8	2	0	2481	-17	-12	-6
> CCSc1nnc(NC(=O)/C=C/c2ccco2)s1
 : 3.0	3	4	4651	-67	1	8
> Cc1ccccc1-c1nc(CN2CCC(C(=O)NCc3cccs3)CC2)c(C)o1
 : -0.8	-7	13	4027	-1	4	9
> OCCC1CN(Cc2cccc(-n3cccn3)c2)CCN1Cc1ccccc1 (stereo not given)
 : 5.9	0	-8	3826	-19	9	10
> COc1ccc(N(CC(=O)NC2CCCCCCC2)S(=O)(=O)c2c(C)nn(C)c2C)cc1
 : -0.5	-1	0	5723	-9	7	11
> COc1ccc(C2CC(=O)C=C(c3ccc4ccccc4c3)C2)cc1OC (stereo not given)
 : 7.7	-21	nt	nt	nt	5	9
> Cc1nc2cc(NC(=O)N(C)c3ccc4ccccc4c3)ccc2o1
 : 1.4	-1	nt	7732	-13	11	-1
> CCOc1ccccc1NC(=O)Cn1nnc(-c2ccc(OCC)c(OCC)c2)n1
 : 13	19	6	7069	5	16	4
> COc1cccc(C(=O)Nc2cc(C(F)(F)F)ccc2Cl)c1
 : 0.0	0	-12	9187	-42	10	-4
> O=C(Nc1ccc(F)cc1F)C1CCN(C(=O)c2ccc(Br)cc2)CC1
 : 5.2	1	7	2615	8	-3	5
> CCCCCCn1c(CN2CCCCC2CC)nc2c1c(=O)n(C)c(=O)n2C (stereo not given)
 : 9.2	10	-3	4727	-9	-5	-2
> COc1cccc(NC(=O)COC(=O)c2ccc(C)c(S(=O)(=O)N3CCCCC3)c2)c1
 : 1.8	-8	nt	3932	0	-5	-6
> CC12CC3CC(C)(C1)CC(C(=O)N1CCN(C(=O)c4ccco4)CC1)(C3)C2
 : nt	nt	-11	4717	-11	nt	nt
> CN1CCC(N(C)S(=O)(=O)c2ccc(NC(=O)COc3cccc(Cl)c3)cc2)CC1
 : -3.0	-1	-7	7070	-24	2	0
> CCCCn1c(N)c(N(CCOC)C(=O)CSc2n[nH]c(-c3ccc(C)cc3)n2)c(=O)[nH]c1=O
 : 1.1	1	7	6402	-25	9	-2
> Cc1ccc(S(=O)(=O)NCC(=O)NCC2CCCCC2)cc1C
 : 5.4	2	-3	5730	-15	-11	6
> Cc1ccnc(NC(=O)c2sc3ccccc3c2Cl)c1
 : 5.0	-4	-7	2013	9	0	8
> NC(=O)C1CCCN(Cc2ccc(Cl)cc2)C1 (stereo not given)
 : 3.7	8	1	9887	-22	11	4
> Cc1cccc(C)c1NS(=O)(=O)c1ccc(NC(=O)c2ccc(Cl)c([N+](=O)[O-])c2)cc1
 : -1.6	-14	5	2099	-3	-12	-5
> CN(C)S(=O)(=O)c1ccc(C(=O)Nc2ccccc2[N+](=O)[O-])cc1
 : 0.6	4	7	2469	-33	-4	1
> CC(=NNC(=O)COc1ccc(C(C)(C)C)cc1)c1ccc(N2CCOCC2)cc1
 : 1.7	1	nt	nt	nt	-6	-2
> Cc1ccccc1N1CCN(C2CCCN(C(=O)c3cc(C(C)C)[nH]n3)C2)CC1 (stereo not given)
 : -1.1	-9	-3	5546	4	-12	-10
> CC(=O)c1ccc(NC(=O)C2CCC(C)NC2=O)cc1 (stereo not given)
 : 2.6	-1	-5	2501	-14	nt	nt
